From PubChem
nsP2pro primary = Primary qHTS for inhibitors of NSP2Pro chikungunya virus (CHIKV). Polyprotein P1234 (Chikungunya virus (strain S27-African prototype)), Q8JUX6. Potency, µM (doses to about 24.9 µM), for inactives: at the highest dose activity change, negative = inhibition, most hits filed as inhibitors. 1.1% of 31,000 active. FRET peptide cleavage, nsP2pro, fluorescence 1 h. AID 1964107, 2024; active means well fitted inhibition curve with a large enough effect; inconclusive means small, poorly fitted or top-dose-only effect; inactive means no such curve, though single readings can be large or run the other way; note: nearly all actives have a fitted effect of over 60% in size; a reference inhibitor and vehicle were the controls
Target sequence (Q8JUX6 whole entry, looked up): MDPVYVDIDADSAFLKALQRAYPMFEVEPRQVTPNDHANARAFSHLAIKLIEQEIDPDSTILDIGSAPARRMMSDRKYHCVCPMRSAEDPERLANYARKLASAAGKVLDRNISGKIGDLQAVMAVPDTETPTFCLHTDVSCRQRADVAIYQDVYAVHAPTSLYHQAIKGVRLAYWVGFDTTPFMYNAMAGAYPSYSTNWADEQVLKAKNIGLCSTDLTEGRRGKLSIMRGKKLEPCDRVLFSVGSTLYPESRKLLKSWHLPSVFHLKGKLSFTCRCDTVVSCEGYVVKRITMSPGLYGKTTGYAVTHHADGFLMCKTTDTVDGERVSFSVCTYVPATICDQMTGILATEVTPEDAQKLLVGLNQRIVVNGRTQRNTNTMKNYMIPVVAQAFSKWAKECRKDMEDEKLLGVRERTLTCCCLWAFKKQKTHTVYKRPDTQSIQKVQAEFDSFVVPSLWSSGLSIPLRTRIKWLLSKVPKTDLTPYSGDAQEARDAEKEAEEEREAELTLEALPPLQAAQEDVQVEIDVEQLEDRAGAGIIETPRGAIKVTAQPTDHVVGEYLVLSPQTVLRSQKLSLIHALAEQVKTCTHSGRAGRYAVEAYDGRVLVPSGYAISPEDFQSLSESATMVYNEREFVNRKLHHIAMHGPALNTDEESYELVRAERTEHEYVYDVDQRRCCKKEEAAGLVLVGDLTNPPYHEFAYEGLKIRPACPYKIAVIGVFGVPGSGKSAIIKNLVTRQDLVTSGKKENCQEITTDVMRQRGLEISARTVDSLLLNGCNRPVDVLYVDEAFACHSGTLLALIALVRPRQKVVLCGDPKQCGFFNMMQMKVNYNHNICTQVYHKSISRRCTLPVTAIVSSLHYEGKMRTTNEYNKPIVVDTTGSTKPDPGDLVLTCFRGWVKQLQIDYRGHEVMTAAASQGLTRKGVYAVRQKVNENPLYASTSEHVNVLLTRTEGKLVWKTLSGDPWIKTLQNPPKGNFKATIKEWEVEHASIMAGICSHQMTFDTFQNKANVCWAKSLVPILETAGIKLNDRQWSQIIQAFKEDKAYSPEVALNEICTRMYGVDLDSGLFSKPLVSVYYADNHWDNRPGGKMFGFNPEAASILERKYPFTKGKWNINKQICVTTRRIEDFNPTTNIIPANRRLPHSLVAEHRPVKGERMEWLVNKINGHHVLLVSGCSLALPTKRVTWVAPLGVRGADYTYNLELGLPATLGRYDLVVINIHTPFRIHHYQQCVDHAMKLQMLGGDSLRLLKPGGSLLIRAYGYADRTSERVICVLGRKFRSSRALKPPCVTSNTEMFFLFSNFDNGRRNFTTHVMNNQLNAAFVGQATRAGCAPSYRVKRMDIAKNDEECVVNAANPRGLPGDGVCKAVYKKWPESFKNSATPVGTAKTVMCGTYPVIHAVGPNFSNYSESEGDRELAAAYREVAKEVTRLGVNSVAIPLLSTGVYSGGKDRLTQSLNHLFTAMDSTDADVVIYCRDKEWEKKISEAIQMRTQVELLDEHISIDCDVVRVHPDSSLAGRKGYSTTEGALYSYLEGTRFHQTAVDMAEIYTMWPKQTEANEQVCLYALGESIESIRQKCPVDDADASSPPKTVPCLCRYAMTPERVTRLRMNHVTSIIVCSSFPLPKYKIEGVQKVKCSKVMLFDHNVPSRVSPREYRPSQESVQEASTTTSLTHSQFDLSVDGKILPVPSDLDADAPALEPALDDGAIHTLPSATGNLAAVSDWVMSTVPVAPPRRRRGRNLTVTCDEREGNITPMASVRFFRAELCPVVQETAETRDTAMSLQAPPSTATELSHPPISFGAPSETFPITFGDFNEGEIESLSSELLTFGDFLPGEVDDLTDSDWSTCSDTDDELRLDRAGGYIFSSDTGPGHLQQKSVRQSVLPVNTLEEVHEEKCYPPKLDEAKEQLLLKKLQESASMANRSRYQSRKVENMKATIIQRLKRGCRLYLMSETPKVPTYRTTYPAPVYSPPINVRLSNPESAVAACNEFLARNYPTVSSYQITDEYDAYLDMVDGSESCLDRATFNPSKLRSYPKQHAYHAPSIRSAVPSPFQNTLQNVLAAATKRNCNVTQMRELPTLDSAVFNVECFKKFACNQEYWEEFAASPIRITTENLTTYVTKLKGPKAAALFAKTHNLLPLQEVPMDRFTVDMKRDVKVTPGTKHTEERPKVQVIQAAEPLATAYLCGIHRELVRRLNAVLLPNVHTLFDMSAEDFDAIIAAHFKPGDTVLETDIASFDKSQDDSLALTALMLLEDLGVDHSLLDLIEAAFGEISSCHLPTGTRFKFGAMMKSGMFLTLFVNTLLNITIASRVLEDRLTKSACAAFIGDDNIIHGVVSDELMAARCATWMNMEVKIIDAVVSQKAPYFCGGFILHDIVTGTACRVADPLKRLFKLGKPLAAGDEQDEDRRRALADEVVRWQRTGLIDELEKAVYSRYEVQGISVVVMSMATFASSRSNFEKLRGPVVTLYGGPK
* marks the source's active call; other numbers are inactive results; i = inactive; ? = inconclusive; [ ] = another dose, or the depositor's remark. % is set by controls: 0 for no effect and ±100 for the full control effect; potency is the fitted concentration of half-maximal effect. The list is partial; rates above refer to the full screens.

SMILES | nsP2pro primary
O=C(Nc1ccc(Cl)c(S(=O)(=O)N2CCOCC2)c1)c1ccc(S(=O)(=O)N2CCOCC2)cc1 | i
OC[C@@H]1O[C@H](CNC2CCOCC2)[C@H](N2CCCCC2)[C@@H]1O | -6%[39.2 µM]
Nc1cccc(S(=O)(=O)N2CCN(S(=O)(=O)c3c(F)cccc3F)CC2)c1 | 1%
Nc1ccccc1C(=O)OCC(O)CO (configuration not stated) | 0%
CC1=C(C(=O)Nc2ccc(Cl)cc2)C(c2cccs2)n2nc(SCc3cccc(Cl)c3)nc2N1 (configuration not stated) | -18%
O=C1CC2(CCN([S+](=O)([O-])c3cccc(C(F)(F)F)c3)CC2)Oc2ccccc21 | i
O=C(C1CCC1)N1CCOc2ccc(CN3CCc4ccccc4C3)cc2C1 | -1%
Cc1ccc(OCCn2c(CCNC(=O)c3c(F)cccc3F)nc3ccccc32)cc1 | -28%
O=C(c1ccncc1)N1CCC2(CN[S+](=O)([O-])c3cnccc3O2)C1 (configuration not stated) | -5%
COCC1(CNCC2CCCC2)C[C@@H](O)[C@@H](O)C1 (some centres not stated) | -2%[39.2 µM]
Cc1ccc(NC(=O)C(=O)NCC(c2cccnc2)N2CCN(Cc3ccccc3)CC2)cc1 (configuration not stated) | 4%
C[N+]1(C)[C@@H]2CC[C@H]1CC(OC(=O)C(CO)c1ccccc1)C2 (some centres not stated) | -6%
c1nc(N2CCC(N3CCCC3)CC2)c2cc(-c3ccc4c(c3)OCO4)ccc2n1 | i
CN(C)S(=O)(=O)c1ccc(CNC(=O)C2CCCN(CC(N)=O)C2)cc1 (configuration not stated) | i
CCOC(=O)c1ncn2c1CN(C)C(=O)c1cc(F)ccc1-2 | -2%
CCc1ccc(OCC(=O)NC(Cc2c[nH]c3ccccc23)C(=O)O)cc1 (configuration not stated) | -14%
Cc1ccc(-c2ccc(=O)n(CCN)n2)cc1 | -5%
CC(Oc1ccccc1)C(=O)Nc1nnc2n1CCS2 (configuration not stated) | -6%
Cc1cnc(-c2ccncc2)n1C1CCN(S(=O)(=O)c2cccc(F)c2)CC1 | i
COc1cccc(-c2nc(S(=O)(=O)c3ccc(Cl)cc3)c(NCc3ccccc3)o2)c1 | 41%[activator]
CC(NC(=O)c1ccc(Cn2c(=O)c3cccn3c3cccnc32)cc1)c1ccccc1 (configuration not stated) | -12%
CSc1cccc(NC(=O)C2CCCN(S(=O)(=O)c3ccc4c(c3)CCCN4C(C)=O)C2)c1 (configuration not stated) | -13%
Cc1ccc(NC(=O)C2CCc3nnc(C4CCN(C(=O)NC(C)(C)C)CC4)n32)cc1 (configuration not stated) | -23%
Cc1noc(C)c1S(=O)(=O)NCCc1csc2nc(-c3ccc(Cl)cc3)nn12 | -2%
Clc1ccc(CN2CCc3nc(Nc4ccc5c(c4)OCCO5)ncc3C2)cc1 | -11%

Next structures:
SMILES | nsP2pro primary
CCC(C)N(C)C(=O)Cn1nc(-c2ccc(C)cc2)ccc1=O (configuration not stated) | -1%
CCCSc1ncc(CN2CC[C@H]3CNC[C@H]32)cn1 | -5%
CCC(CC)c1cc([C@H]2CN3CC[C@H]2C[C@@H]3CNC2CCN(C)CC2)nc(-c2ccncc2)n1 | 5%
O=C(CC1CCCC1)N1CCCC(c2nn[nH]n2)C1 (configuration not stated) | 1%
C=C1C(=O)O[C@@H]2[C@H]3C(=C)[C@@H](O)C[C@H]3C(=C)C[C@@H](O)[C@@H]12 | 35%
CCCC(=O)NCC1(N(C)C)CCCCC1 | 28%
O=C(c1cccs1)N1CCN2CCS(=O)(=O)N(C3CC3)C(=O)C2C1 (configuration not stated) | 0%
CCCCC(F)(F)[C@@]1(O)CC[C@H]2[C@H](CC(=O)[C@@H]2CCCCCCC(=O)O)O1 | -7%
O=C(NCCCN1CCN(c2cccc(Cl)c2)CC1)Nc1ccccc1C(F)(F)F | 5%
CCC(C)n1c(=N)c(C(=O)NC2CCCCC2)cc2c(=O)n3cc(C)ccc3nc21 (configuration not stated) | -33%
N#CC1=C2SCN(C3CCCCC3)CN2C(=O)CC1c1c(F)cccc1Cl (configuration not stated) | ?
Cc1cccc(-n2ncc3c2CCCC3NC(=O)CN2CCNC(=O)C2)c1C (configuration not stated) | 3%
O=C(CCCc1c[nH]c2ccccc12)N1CCc2nc3cc[nH]n3c(=O)c2C1 | i
CC1CCN(CC2CCCN(C(=O)COc3ccc(F)cc3)CC2)CC1 (configuration not stated) | i
CCOc1ccc(CNC(=O)C2=Cc3cccc(OC)c3OC2)cc1 | -11%
O=C(O)c1ccc(C2CCCN(C(=O)c3cccc(N4CCOCC4)c3)C2)cc1 (configuration not stated) | 0%
COc1ccccc1-c1cc([C@H]2CN3CC[C@H]2C[C@@H]3CNC(=O)N2CCOCC2)n(C)n1 | -1%[39.2 µM]
CC1CCCCN1CCCNC(=O)Cn1ncc2c([nH]c3ccccc32)c1=O (configuration not stated) | -28%
Cc1ccc(F)c(OC2(C(=O)O)CCN(Cc3cccc(C)n3)CC2)c1 | 3%
CC(CCC1(O)OC2CC3C4CC=C5CC(O[C@@H]6O[C@H](CO)[C@@H](O[C@@H]7O[C@@H](C)[C@H](O)[C@@H](O)[C@H]7O)[C@H](O)[C@H]6O[C@@H]6O[C@@H](C)[C@H](O)[C@@H](O)[C@H]6O)CCC5(C)C4CCC3(C)C2C1C)CO[C@@H]1O[C@H](CO)[C@@H](O)[C@H](O)[C@H]1O (some centres not stated) | 3%[5.1 µM]
CN(C)c1ccc(C(CNC(=O)c2ccccc2Cl)N2CCCC2)cc1 (configuration not stated) | -16%
O=c1c2cc(-c3cccs3)nn2ccn1CC(O)c1cccc(Cl)c1 (configuration not stated) | i
CCCNC(=O)N[C@@H]1CCC[C@@H](C(=O)NCCOC)CC(=O)N(C)C1 | 4µM*
CCC(c1cnn(C)c1)n1ccnc1-c1cc(F)c(OC)c(Cl)c1 (configuration not stated) | i
FC(F)(F)c1ccnc(N2CC[C@H](c3nnc(-c4ccncc4)o3)C2)n1 | -2%[39.2 µM]

Carrying on:
SMILES | nsP2pro primary
CC(=O)CC1CCC(C(C)C(=O)OCC(O)CO)O1 (configuration not stated) | ?
CNC(=O)[C@H]1O[C@@H](n2cnc3c(NCc4ccc(N)c(I)c4)ncnc32)[C@H](O)[C@@H]1O | -9%[5.1 µM]
CC(C)n1cc(-c2ccc(Oc3ccccc3)cc2)c2c(N)ncnc21 | 4%
C=C1CC2C(C)(CCC(=O)O)C(C(C)(C)O)CCC2(C)C2C(=O)OC(C)(C(=O)OC)C(=O)C12C (configuration not stated) | -10%[10 µM]
CO[C@H]1/C=C\O[C@@]2(C)Oc3c(C)c(O)c4c(O)c(c(/C=N/N5CCN(C6CCCC6)CC5)c(O)c4c3C2=O)NC(=O)/C(C)=C\C=C/[C@H](C)[C@H](O)[C@@H](C)[C@@H](O)[C@@H](C)[C@H](OC(C)=O)[C@@H]1C | 6%
Cc1cc2c(s1)c1c(C)nn(Cc3ccccc3F)c(=O)c1n2C | 4%
CC(C)C(=O)O[C@H]1[C@@H]2[C@H](C)C(=O)O[C@@H]2C[C@@H](C)[C@@H]2C=CC(=O)[C@]21C | 23%
Nc1nc2c(c(=O)[nH]1)CCN(C(=O)Cc1c[nH]c3ccccc13)C2 | -15%
Cc1cc2c(s1)c1cnn(Cc3cc(F)cc(F)c3F)c(=O)c1n2C | 0%
COC[C@H]1C[C@@H](NS(C)(=O)=O)[C@H](O)[C@@H]1O | -4%[39.2 µM]
O=C(c1ccc(F)cc1)N1CCC[C@H](c2nc(-c3ccc(F)cc3)no2)C1 | -7%
O=C(Nc1cnc(N2CCN(c3ccccc3)CC2)c(C(=O)O)c1)c1cccs1 | 2.5µM*
COC(=O)C1=CO[C@@H](O[C@@H]2O[C@H](CO)[C@@H](O)[C@H](O)[C@H]2O)[C@@H]2[C@@H](C)[C@@H](O)C(O)[C@H]12 (some centres not stated) | -7%[10 µM]
Cc1cccc(C(=O)NC(=O)Nc2ccc(-n3nc(C(F)(F)F)cc3C(F)(F)F)cc2)c1 | -27%
C[C@@H]1O[C@@H](O[C@H]2[C@H](O)[C@@H](O[C@@H]3O[C@H](CO)[C@H](O)[C@H](O)[C@H]3O)[C@H](O[C@H]3CC[C@@]4(C)C(CC[C@]5(C)C4CC=C4[C@@H]6CC(C)(C)CC[C@]6(C(=O)O[C@@H]6O[C@H](CO)[C@@H](O)[C@H](O)[C@H]6O)CC[C@]45C)C3(C)C)O[C@@H]2C(=O)O)[C@H](O)[C@H](O)[C@H]1O (some centres not stated) | -6%[5.1 µM]
O=C(NCCc1ccccc1)C(=O)NCC(c1cccnc1)N1CCN(c2ccc(F)cc2)CC1 (configuration not stated) | ?
COc1ccc(Cl)cc1NC(=O)c1cc(C)nn1-c1ccccc1 | -7%
O=C(O)C1CCc2cc(C3CCCCC3)c(Cl)cc21 (configuration not stated) | 6%
CCOc1ccc(CN2C(=O)c3ccccc3Sc3ccc(C(=O)NCc4ccc5c(c4)OCO5)cc32)cc1 | -22%
O=C(COc1ccccc1)N[C@H]1CO[C@H]2[C@@H]1OC[C@@H]2Nc1nccc(-c2ccco2)n1 | 13µM*
COc1ccccc1-c1noc(-c2ccc(NC3CCCC3)c([N+](=O)[O-])c2)n1 | -10%
CCN1C(=O)c2ccccc2Sc2ccc(C(=O)NCCCN(CC(C)C)CC(C)C)cc21 | -16%
c1ccc2c(c1)sc1ccccc12 | 0%
COc1cc(NC(=O)Nc2cccc(CNC(=O)O[C@H]3CCOC3)c2)ccc1-c1cnco1 | 68%[activator]
CCCc1c2oc(C(=O)O)cc(=O)c2cc2c(=O)cc(C(=O)O)n(CC)c12 | -7%

Next part
SMILES | nsP2pro primary
O=C(Nc1ccccc1Cl)C1CCN(c2nc3ccccc3[nH]2)CC1 | 14%
CC(C)C(=O)OCc1cccc(OC(=O)[C@@H]2N3C(=O)[C@@H](NC(=O)Cc4ccccc4)[C@H]3SC2(C)C)c1 | -8%
CCOCCc1nn2c(=O)cc(COC(=O)c3ccc(NC(=O)c4cccs4)cc3)nc2s1 | -15%
COc1cc(OC)cc(-c2nnc3n2N=C(c2ccc(OC)c(OC)c2)CS3)c1 | i
COc1cccc(-c2cc(C(=O)NCc3c(C)cc(C)[nH]c3=O)c3c(c2)N(C(C)C)CCO3)c1OC | 4%
CNS(=O)(=O)Cc1ccc2[nH]cc(CCN(C)C)c2c1 | -19%
Cc1cc(N2CCOCC2)cc2[nH]c(-c3c(NC[C@@H](O)c4cccc(Cl)c4)cc[nH]c3=O)nc12 | 12%
Cc1ccc(S(=O)(=O)Nc2cc3c(cc2C(=O)Nc2nc(-c4ccccc4)cs2)OCO3)cc1 | i
O=C(c1ccc(Cl)cc1)N1CCC2(CC1)CC(c1ccccc1)=NO2 | 4%
C=C(C(=O)O)[C@@H]1CC[C@H](C)[C@@H]2CC(=O)C(C)=C2C1 | ?
Fc1cccc(CNc2ncnc3ccc(-c4ccc5c(c4)OCO5)cc23)c1 | i
O=C(Nc1ccc(-c2cn3cccnc3n2)cc1)c1cc(Br)ccc1Cl | -7%
Cc1ccc(OCCn2c(CCNC(=O)Cc3cc(F)ccc3F)nc3ccccc32)cc1 | -4%
CC1(C)S[C@@H]2[C@H](NC(=O)COc3ccccc3)C(=O)N2[C@H]1C(=O)O | -13%
O=C(OCc1c(-c2ccccc2)no[n+]1[O-])c1ccccc1 | -3%
O=C(NC1CCCCCC1)c1cc2c(Cl)nc3ccccc3c2s1 | -15%
CCOc1ccccc1C(=O)N(Cc1ccc(N(C)C)cc1)CC1CCCO1 (configuration not stated) | -21%
O=C(NCc1ccc(Cl)cc1)c1c[nH]c2ncccc12 | i
CC1=C(C)C(=O)C(CC[C@](C)(O)CCC[C@H](C)CCC[C@H](C)CCCC(C)C)=C(C)C1=O | -7%
COc1cc(C(=O)OC[C@H]2O[C@@H](OC(C)(C)C(=O)O)[C@H](O)[C@@H](O)[C@@H]2O)cc(OC)c1O | ?
CC(C)CN[C@H]1CO[C@H]2[C@@H]1OC[C@@H]2Nc1nccc(-c2cccs2)n1 | -3%[39.2 µM]
COc1cc(CCc2ccccc2)c(C(=O)O)c2c1CC(C(C)(C)O)O2 (configuration not stated) | ?
COc1ccc(-c2coc3cc(O)cc(O)c3c2=O)cc1 | ?
O=C(CSc1nc(=O)n(CCN2CCOCC2)c2c1CCC2)Nc1ccc(F)cc1F | -15%
CCCN(CCC)CCNC(=O)c1nn(C)c2c1CS(=O)(=O)c1ccccc1-2 | -30%
Cc1ccc(S(=O)(=O)O)cc1C | 8%
COc1ccc(CCNC(=O)c2ccc(Cn3c(=O)c4ccccc4n(Cc4cccc(C)c4)c3=O)cc2)cc1OC | -10%

A draw from above in order of SMILES length, descending.
SMILES | nsP2pro primary
CC(C)C(=O)OCc1cccc(OC(=O)[C@@H]2N3C(=O)[C@@H](NC(=O)Cc4ccccc4)[C@H]3SC2(C)C)c1 | -8%
Cc1cc(N2CCOCC2)cc2[nH]c(-c3c(NC[C@@H](O)c4cccc(Cl)c4)cc[nH]c3=O)nc12 | 12%
COc1ccc(CCNC(=O)c2ccc(Cn3c(=O)c4ccccc4n(Cc4cccc(C)c4)c3=O)cc2)cc1OC | -10%
COc1cccc(-c2cc(C(=O)NCc3c(C)cc(C)[nH]c3=O)c3c(c2)N(C(C)C)CCO3)c1OC | 4%
Cc1ccc(S(=O)(=O)Nc2cc3c(cc2C(=O)Nc2nc(-c4ccccc4)cs2)OCO3)cc1 | i
CCOCCc1nn2c(=O)cc(COC(=O)c3ccc(NC(=O)c4cccs4)cc3)nc2s1 | -15%
Cc1ccc(OCCn2c(CCNC(=O)Cc3cc(F)ccc3F)nc3ccccc32)cc1 | -4%
O=C(CSc1nc(=O)n(CCN2CCOCC2)c2c1CCC2)Nc1ccc(F)cc1F | -15%
COc1cc(CCc2ccccc2)c(C(=O)O)c2c1CC(C(C)(C)O)O2 (configuration not stated) | ?
O=C(c1ccc(Cl)cc1)N1CCC2(CC1)CC(c1ccccc1)=NO2 | 4%
O=C(OCc1c(-c2ccccc2)no[n+]1[O-])c1ccccc1 | -3%
O=C(NC1CCCCCC1)c1cc2c(Cl)nc3ccccc3c2s1 | -15%
